# NPYLR7 ag: agonists of mosquito NPYLR7 receptor, primary screen, cell-based, Aedes aegypti, calcium fluorescence, mosquito biting behavior; activation, % at 10 µM; HEK293T NPYLR7/Galpha15, GCaMP6s calcium fluorescence; 270,000 compounds, 0.15% hits; in the data active = activation above about 40%;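 note: 0% = vehicle and 100% = reference agonist at the receptor; some compounds past the cut are filed as inactive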
# NPYLR7 ag max-min: further read-out of NPYLR7 ag, marked with its call; activation, %; measured here: Max-Min RFU normalised activation; some inactives read as strong as hits;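 span of the calcium signal over five minutes; 0% = vehicle and 100% = native peptide agonist; compound fluorescence can raise it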
# Active calls of the source: *; & = joins results of further samples. Only part of the results is shown, so the mix of outcomes need not match the whole.
SMILES,NPYLR7 ag,NPYLR7 ag max-min
CCCn1nc(C(=O)N2CCOCC2CC(=O)c2cccs2)ccc1=O (stereo unspecified),6,3
CCC(=O)Nc1cccc(-c2ccc(OC)nn2)c1,-2,-4
COc1ccc(-c2nc(CN3CCN(c4ccc(Cl)cn4)CC3)c(C)o2)cc1C,6,2
O=C(c1cccc(C(F)(F)F)c1)C1CCCN(C(=O)/C=C/c2ccccn2)C1 (stereo unspecified),6&2,3&1
Cc1ccc(C(=O)NNS(=O)(=O)c2cc(Cl)sc2Cl)s1,-8,831
Oc1oc(-c2ccccc2)nc1C=Nc1cc(C(F)(F)F)ccc1Cl,-4,-11
Nc1ccc2c(c1)S(=O)(=O)c1cc(N)ccc1-2,5&4,2&2
CC(C)COC(=O)N1CCCN(C(=O)C2(c3ccccc3)CCC2)CC1,7,3
COCC(=O)Nc1ccc(N2CCN(C(=O)c3cc(F)ccc3Cl)CC2)nc1,-9,-7
NCCN1C(=O)S/C(=C/c2cccc(Cl)c2Cl)C1=O,0,1
C#CCn1c(=NC(=O)c2cccc(S(C)(=O)=O)c2)sc2cc(S(C)(=O)=O)ccc21,3,1
COc1ccc(-n2c(SCCC(C)C)nc3c(c2=O)SCC3)cc1OC,-7,-9
CCOc1ccc(-n2c(C3CCCN(C)C3)n[nH]c2=O)cc1 (stereo unspecified),9,6
O=C(Cn1nc2c(c1NC(=O)COc1ccc(F)cc1)CSC2)NCCc1ccccc1,7,19
Cc1ccc(NC(=O)CCCSc2nnc(-c3ccccc3)n2-c2ccccc2)cc1,14,28
COc1ccc(Oc2c(CN(CC(O)Cc3ccccc3)C(C)C)c(-c3ccccc3)nn2C)cc1 (stereo unspecified),1,14
COc1ccccc1-n1c(-c2ccc(Cl)cc2)cc(C(=O)N(CCC#N)Cc2cccnc2)c1C,23,29
CCCNC(=O)CSc1nnc2[nH]c(=O)c3c(n12)CCCC3,0,-4
Cc1cc(C(=O)N2CCN(C(c3ccccc3)c3ccc(Br)cc3)CC2)n(C(C)(C)C)n1 (stereo unspecified),-1,4
CN(C)c1ccc(N)cc1CN(CC1CCCO1)C(=O)c1cccs1 (stereo unspecified),0,-2
N#CCC1C(=O)Nc2ccccc21 (stereo unspecified),11,18
CC1(C(=O)N2CCCCC2)CCN1C(=O)C1(c2ccccc2)CCCC1 (stereo unspecified),11,23
CN(CCC=C1c2ccccc2CCc2ccccc21)C(=O)c1ccccc1C(F)(F)F,-7,-11
Cc1cc(=O)n(-c2ccc(S(=O)(=O)O)cc2C)[nH]1,-5,-13
O=C(/C=C/c1ccco1)N1CCC(C(O)c2ccc(Cl)cc2)CC1 (stereo unspecified),0,-3
SMILES,NPYLR7 ag,NPYLR7 ag max-min
COc1ccc(-c2nccn2CC(C)O)cc1CN1CCCC1 (stereo unspecified),3,1
O=C(CCc1ccccc1)NCCn1ncc2c(N3CCCC3)ncnc21,0,-2
c1ccc(-c2ccc(-c3[nH]ncc3CN3CCSCC3)cc2)cc1,5,1
CC(=O)Nc1ccc(/C(C)=N\Nc2nc(N3CCCCC3)nc(N3CCOCC3)n2)cc1,-3,-8
Cc1nc2ccc(C(=O)N3CCC4(C=Cc5ccccc54)CC3)cc2[nH]1,-1,20
COC(=O)C1=C(O)/C(=C\c2cc(OC)cc(OC)c2)SC1=Nc1ccc(C)cc1,-2,-1
COCCN(CCC(=O)NCc1ccco1)c1nc(C2CC2)nc2ccccc12,10,18
O=C(c1ccc(F)cc1C(F)(F)F)N1CCN(c2nccc(-c3ccc(N4CCOCC4)cc3)n2)CC1,2,0
COc1cc(C(=O)NCc2cccc(SC)c2)ccc1OC1CCN(C(C)=O)CC1,1,-1
OC1=c2cccc(O)c2=C/C1=C\c1cn2cc(Cl)ccc2n1,5,5
NC(=S)c1cccc(Br)c1,-5,-11
CCCNC(=O)C(CC)n1c(=O)n(-c2ccc(F)cc2)c(=O)c2ccccc21 (stereo unspecified),-1,1
COc1ccc(C(=O)N2CC(=O)NCC(C)(C)C2)cc1OC,23,31
CCN1CCC(CC(=O)N(Cc2ccsc2)CC(C)C)CC1,4,0
CN1CCN(C(=O)C2CCCN(c3nc(-c4ccccc4)nc4c3CCC4)C2)CC1 (stereo unspecified),0,-3
O=C(NCc1ccco1)c1cc(=O)c(OCc2ccccc2)c[nH]1,7,3
Cc1cnc(C)c(N2CCN(C(=O)c3cc(COc4ccc5ncccc5c4)on3)CC2)n1,2,-2
CCc1nn(-c2ccccc2)c(Oc2ccccc2)c1CN(CC(O)COCC(C)C)CC1CCCO1 (stereo unspecified),6,7
CONC(=O)c1cc(-c2ccco2)nc2c1cnn2C(C)C,3,-1
CC(C)c1nnsc1CNC(=O)CC1C(=O)NCCN1C(C)C (stereo unspecified),8,-2
Cc1cn2c3c(=O)[nH]c(=O)n(C)c3nc2n1CCCN1CCOCC1,10,10
CCc1ocnc1C(=O)OCC1CCCCC1,23,14
Cc1ccc(CNC(=O)CCC2CCCN(Cc3ccc4c(c3)OCCO4)C2)o1 (stereo unspecified),2,-1
CCn1nc(C)c(C(=O)Nc2cccc(NC(=O)c3ccccc3OC)c2)c1C,10,2
COC(=O)c1ccccc1NC(=O)Cn1nc(C(F)(F)F)c(Cl)c1C,1,-2

# Looked up above:
# NPYLR7 ag max-min, `Cc1cnc(C)c(N2CCN(C(=O)c3cc(COc4ccc5ncccc5c4)on3)CC2)n1` : -2
# NPYLR7 ag max-min, `CCc1nn(-c2ccccc2)c(Oc2ccccc2)c1CN(CC(O)COCC(C)C)CC1CCCO1` (stereo unspecified) : 7
# NPYLR7 ag max-min, `Cc1ccc(CNC(=O)CCC2CCCN(Cc3ccc4c(c3)OCCO4)C2)o1` (stereo unspecified) : -1
# NPYLR7 ag max-min, `O=C(c1ccc(F)cc1C(F)(F)F)N1CCN(c2nccc(-c3ccc(N4CCOCC4)cc3)n2)CC1` : 0

# A second format for 4 compounds above.
molecule: CCCNC(=O)C(CC)n1c(=O)n(-c2ccc(F)cc2)c(=O)c2ccccc21 (stereo unspecified)
  NPYLR7 ag: -1; NPYLR7 ag max-min: 1

molecule: COc1ccc(C(=O)N2CC(=O)NCC(C)(C)C2)cc1OC
  NPYLR7 ag: 23; NPYLR7 ag max-min: 31

molecule: CCN1CCC(CC(=O)N(Cc2ccsc2)CC(C)C)CC1
  NPYLR7 ag: 4; NPYLR7 ag max-min: 0

molecule: CN1CCN(C(=O)C2CCCN(c3nc(-c4ccccc4)nc4c3CCC4)C2)CC1 (stereo unspecified)
  NPYLR7 ag: 0; NPYLR7 ag max-min: -3

# Continuation.
SMILES,NPYLR7 ag,NPYLR7 ag max-min
Cc1ccc(C2(O)CCN(C(=O)COCc3ccccc3)CC2)nc1,4,-7
CCC1CCCN(C(C)(C)CNC(=O)Nc2nc(C3CC3)cs2)C1 (stereo unspecified),-4,-6
CCCCN(CC(=O)N1CC(=O)N(c2ccc(Cl)cc2)C1)C(C)=O,19,11
Cn1c(=N)sc2ccccc21,8,7
Cc1cccc(OCc2ccc(-c3nc(C#N)c(NCCCN(C)C)o3)o2)c1,0,3
O=C(NCc1cccnc1)NC1CCCN1S(=O)(=O)c1ccc(Cl)cc1 (stereo unspecified),-1,-2
CCN1C(=S)NC(c2cccc(NS(=O)(=O)c3ccc(F)cc3)c2)C(C(=O)OC(C)C)=C1C (stereo unspecified),16,17
CC(=O)OCC(=O)[C@@]1(O)CC[C@H]2[C@@H]3CCC4=CC(=O)CC[C@]4(C)[C@H]3C(=O)C[C@@]21C,6&8,1&-8
CN1CCN(n2ccc3c(cnc4c(-c5ccccc5)cnn43)c2=O)CC1,30,17
CCOC(=O)CCc1c(C)nc2ncnn2c1N1CCN(C(=O)Cc2cccs2)CC1,13,9
O=[N+]([O-])c1ccc(CSc2ccc(-c3cccc([N+](=O)[O-])c3)nn2)cc1,2,2
O=C(NCC1CCN(Cc2ccncc2Cl)C1)C1CCCCC1 (stereo unspecified),2,0
CN(C)S(=O)(=O)c1ccc(C(=O)Nc2[nH]nc(N3CCOCC3)c2C#N)cc1,-2,-2
O=C(Cn1nc(-c2cccs2)c2sc(N3CCCC3)nc2c1=O)NCc1ccco1,-2,-8
Cc1nc(NCCNC(=O)c2ccc(F)cc2Cl)cc(N2CCOCC2)n1,2,1
Cc1ccc(-n2c(SCC(=O)Nc3nc4ccc(C)cc4s3)nc3c(c2=O)SCC3)cc1,0,0
CCOc1ncccc1CN1CCCC(C(=O)NC(c2ccccc2)c2ccccn2)C1 (stereo unspecified),1,-4
CCOc1ccccc1-c1nc(Cn2nnc(C(=O)Nc3ccccc3CC)c2C)c(C)o1,9,0
O=C(C1CCCN(C2CCN(c3cnc4ccccc4n3)CC2)C1)N1CCCC1 (stereo unspecified),1,12
CCCS(=O)(=O)c1c(S(=O)(=O)CCC)c2cnccn2c1C(=O)c1ccc(OC)cc1,9,6
CCOc1ccccc1NC(=O)N(CCOC)Cc1cccc(OS(=O)(=O)c2ccc(F)cc2)c1,-2,10
C=CCN(CC(=O)N1CCc2sccc2C1c1ccccc1C)C(=O)c1ccc(Br)cc1 (stereo unspecified),0,-5
N#C/C(=C\N1CCCC1)C(=O)Nc1cccc(Cl)c1,2,0
CC1(C(=O)Nc2cccc3cccnc23)CCN1C(=O)Cc1ccccc1Cl (stereo unspecified),2,1
COc1ccc(-n2nc(-c3ccc(C)o3)cc2C(=O)O)cc1,14,16

# Looked up by structure from the entries so far (3):
SMILES,NPYLR7 ag,NPYLR7 ag max-min
CCCCN(CC(=O)N1CC(=O)N(c2ccc(Cl)cc2)C1)C(C)=O,19,11
CC1(C(=O)Nc2cccc3cccnc23)CCN1C(=O)Cc1ccccc1Cl (stereo unspecified),2,1
CN1CCN(n2ccc3c(cnc4c(-c5ccccc5)cnn43)c2=O)CC1,30,17

# Next section
SMILES,NPYLR7 ag,NPYLR7 ag max-min
Cc1ccc(CN2CCN(Cc3cccc(C)c3)CC2CCO)cc1 (stereo unspecified),-1,-4
FC(F)(F)c1cccc(-c2n[nH]c3ccnc(-c4ccsc4)c23)c1,4,3
O=C1C=C(NCCc2c[nH]c3ccccc23)CC(c2ccccc2)C1 (stereo unspecified),-7,-8
C=Cc1ccc2c(c1)N(C)C(=C)S2,1,0
CCC(C)(C)C1CCC2(CC1)NC(CO)(CO)CO2 (stereo unspecified),0,0
O=C(NN=Cc1cccs1)C1CCN(S(=O)(=O)c2cccs2)CC1,-7,-9
CN(Cc1ccccc1)C(=S)NC(=O)C1CC1,8,9
CC(C)OC(=O)CCNC(=O)Nc1ccccc1N1CC(C)OC(C)C1 (stereo unspecified),4,2
COc1cc(NC(=O)Cn2c3ccc(F)cc3c3ncn(Cc4ccccc4)c(=O)c32)cc(OC)c1,-2,-4
COc1cccc(C2CC2C(=O)Nc2cnc(C3CC3)nc2)c1 (stereo unspecified),5,4
CC1C(c2ccccc2)OC(C(O)c2ccccc2)C(=O)N1C (stereo unspecified),3,6
O=C(c1ccc(CSc2nnc(-c3ccncc3)n2-c2cccc(Cl)c2)cc1)N1CCN(c2ccccc2F)CC1,3,11
Cc1nc(S(=O)(=O)N2CCCCC2CCc2ccccc2)cn1C (stereo unspecified),-5,-6
CNC(=O)Cn1cc(OC)c(=O)cc1CSc1ncccn1,-6,-9
COC(=O)c1ccc(N=Cc2nc(-c3ccccc3Br)oc2O)cc1,-1,-8
Cc1cccc(Nc2ccc(NCCNC(=O)c3ccccc3C)nn2)n1,9,3
CCOC(=O)C1CCCN(C(=O)CC(c2cccc3c2OCO3)c2c[nH]c3ccccc23)C1 (stereo unspecified),8,18
Clc1cc(CNCCNc2ccccc2)cc2c1OCCCO2,5,6
Fc1ccc(C=Nn2c(-c3ccc(Cl)cc3)csc2=NCC2CCCO2)cc1 (stereo unspecified),2,0
COc1cccc(CN2CCCC3(CCN(C(=O)c4ccoc4)C3)C2=O)c1OC (stereo unspecified),2,-2
COc1ccc(C(=O)Nc2cc(C)nn2-c2nc(C)c(C)c(=O)[nH]2)c(OC)c1,4,2
Cc1cccc(NC(=O)c2ccc(S(=O)(=O)Nc3cccc(C(F)(F)F)c3)o2)n1,-7,-7
N[C@@H]1c2ccccc2C2(CCN(c3ncnc4[nH]ccc34)CC2)[C@H]1O,6,3
Cc1ccccc1-n1nc(C)c(CNC(=O)CCCCCNC(=O)OC(C)(C)C)c1C,6,5
COCCN(CC(=O)Nc1nc(CC(=O)NCc2ccccn2)cs1)C(=O)c1ccccc1,5,10
SMILES,NPYLR7 ag,NPYLR7 ag max-min
CCN(Cc1cc(Cl)ccc1OC)C(=O)c1ccc(CO)cc1,13,-2
Cc1cccc(C)c1-n1c(C)cc(/C=N\NC(=O)CN2CCOCC2)c1C,2,-4
Cc1ccc(NCc2ncc(C(C)C)o2)cc1OCC1CCOCC1,-1,42
Nc1sc2c(c1C(=O)c1ccccc1)CCC2,-2,-2
CCCc1cc(=O)[nH]c(-n2nc(C)cc2NC(=O)c2cc(OCC)c(OCC)c(OCC)c2)n1,8,6
Cc1nc(C(C)Nc2nc(C(C)(C)C)nc3c2cnn3C)cs1 (stereo unspecified),-4,-1
O=C1CN(C(=O)COc2ccc3cc(Br)ccc3c2)CCN1,-4,-5
Cc1ccc(Cl)cc1-n1c(SCc2ccc(F)cc2)nnc1C(Cc1ccccc1)NC(=O)c1cccc([N+](=O)[O-])c1 (stereo unspecified),0,8
O=C(c1ccccc1OCc1ccccc1Cl)N1CC(O)C1,-19,-20
O=C(O)CCC/C=C\C[C@@H]1[C@@H](/C=C/[C@H](O)C2Cc3ccccc3C2)[C@@H](F)C[C@@H]1O,-5,-14
CCCN(CCN)C(=O)OC(C)(C)C,18,13
O=C(CN1C(=O)NC2(CCCCCC2)C1=O)c1cccs1,5,4
CC(=O)Oc1c(C)cc(CN(C)Cc2snnc2C)cc1C,15,15
CCN(CC)Cc1cc(C(=O)O)oc1C(C)(C)C,2,1
CCN(CC)c1ncccc1CNc1nc(C(F)(F)F)nc(C)c1C,0,2
Cc1cc(NC(=O)c2onc(C)c2Cl)no1,7,9
CC(=O)c1[nH]c(C)c(C(=O)N2CCCC(CCC(=O)Nc3ccc(F)cc3C)C2)c1C (stereo unspecified),9,-2
C=CCn1c2ccccc2n2nc(C)c(C(C)=O)c12,-10,-15

# Compound activity from PubChem BioAssay.
